Assay outcomes from PubChem.
RanGTP-Imp inh: disruptors of Ran-importin-beta complex formation – biochemical, FRET, CFP-Ran, YFP-importin-beta, homogeneous, primary screen | cell-free CFP-Ran/YFP-importin-beta FRET ratio | inhibition, % (concentration not given with the values) | 1.1% of 300,000 active | AID 2216;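 active = most replicates above 15%; inconclusive = exactly half above 15%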;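 note: 0% = DMSO wells and 100% = Ran loaded with GDP instead of GTP; wells of about 40 µL received 100 nL stock; the first replicate is given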
UCH37 DUB inh: inhibitors of human deubiquitinating enzyme UCH37; AID 588478; Q9Y5K5; purified proteasome/UCH37, Ub-AMC cleavage fluorescence; inhibition, % (no concentration beside the values); 0.33% of 330,000 active;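 active = mean of two replicates above 20%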;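 note: 0% = compound-free wells with enzyme and 100% = wells lacking proteasome; stock transfer was 100 nL into about 20 µL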
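Assay system: Proteasome-bound UCH37. Buffer or medium: pH 7.4 Tris-HCl (50 mM) with ovalbumin, ATP-MgCl2, DTT. Incubation: 30 min preincubation with enzyme, 25 min cleavage at room temperature. Measured by: fluorescence, ex 355 nm, em 460 nm. Read-out basis: percent inhibition. Control set: wells without proteasome as full block, compound-free enzyme plus substrate as uninhibited.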
FGF22 binding: shifts melting point of recombinant human FGF22; Q9HCT0; recombinant FGF22 thermal shift, SYPRO orange fluorescence; percent of sucrose octasulfate shift, DMSO zero; calls only at 9.99 µM; 1.5% of 340,000 active; AID 651658;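 active = melting point raised past a set limit in the mean and every replicate; inconclusive = no clear call; three in four hits are not shown here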
HNF4A DNA FP: change in binding of human HNF4 alpha to DNA; P41235; HNF4a-FITC DNA binding, fluorescence polarization, 1 h; activity change, % at 10 µM; 0.3% of 360,000 active; in the data active = activity change above about 30%, passing the limit was not always enough;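 note: controls were the assay level and a saturating level of protein; the project sought stronger binding though the title names inhibitors; some compounds called inactive have numbers as strong as hits; positive values seem to mean higher polarization but the record does not say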
Target sequence (P41235 whole entry, looked up): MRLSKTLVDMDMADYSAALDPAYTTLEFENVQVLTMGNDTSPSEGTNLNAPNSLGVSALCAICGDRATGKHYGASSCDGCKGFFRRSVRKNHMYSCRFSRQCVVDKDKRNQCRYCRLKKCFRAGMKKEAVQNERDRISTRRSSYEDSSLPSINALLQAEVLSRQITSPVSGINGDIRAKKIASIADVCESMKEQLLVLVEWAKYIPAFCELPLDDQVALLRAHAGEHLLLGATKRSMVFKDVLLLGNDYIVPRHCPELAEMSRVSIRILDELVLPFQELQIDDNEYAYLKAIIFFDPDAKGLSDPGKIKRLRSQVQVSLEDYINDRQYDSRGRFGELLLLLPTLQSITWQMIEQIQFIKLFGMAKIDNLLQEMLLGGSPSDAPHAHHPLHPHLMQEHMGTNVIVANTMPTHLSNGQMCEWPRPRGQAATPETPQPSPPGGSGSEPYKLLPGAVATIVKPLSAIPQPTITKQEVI
Vif TR-FRET: HIV-1 Vif–A3G interaction blockers – biochemical, TR-FRET, GST-Vif 1-94, biotin-A3G peptide, dose response retest, primary screen (AID 1117319); TR-FRET GST-Vif / biotin-A3G peptide binding; higher % means a stronger effect; test concentration not given here; strong numbers were not always called active; inhibition, %, or IC50 in µM where a hit was titrated; 0.57% of 260,000 active;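 active = above the screen mean plus three standard deviations and confirmed in dose response; inconclusive = results disagree or hit not tested in dose response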;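 note: Vif residues 1-94 fused to GST binding biotinylated APOBEC3G peptide 110-148; 0% = full assay without inhibitor and 100% = GST in place of GST-Vif; retest series ran down from 100 µM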
Ecoli growth: E. coli growth inhibition; 0.21% of 330,000 active; AID 1053175; OD600 absorbance (test concentration not listed); Escherichia coli growth, OD600, 23 h; stronger effect = lower value;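 active = OD600 absorbance below the run mean of sample wells minus 3.6 SD, in any replicate, cut at about 0.56 in these data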;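 note: stock transfer was 300 nL into about 60 µL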
AF4-AF9 inh: inhibitors of human MLL-AF4/AF9 interaction. P42568. AlphaScreen, biotin-AF4 peptide binding to FLAG-AF9. inhibition, % at 10 µM. 0.47% of 350,000 active. AID 651704;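 active = every replicate reaching a set inhibition limit, whatever the replicate mean, cut at about 25% in these data; inconclusive = mean inhibition reaches that limit but some replicates miss it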;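 note: 0% = plate neutral control median and 100% = total signal loss; the record names both 10 and 1 µM as test concentration; the first replicate is given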
Target sequence (P42568 whole entry, looked up): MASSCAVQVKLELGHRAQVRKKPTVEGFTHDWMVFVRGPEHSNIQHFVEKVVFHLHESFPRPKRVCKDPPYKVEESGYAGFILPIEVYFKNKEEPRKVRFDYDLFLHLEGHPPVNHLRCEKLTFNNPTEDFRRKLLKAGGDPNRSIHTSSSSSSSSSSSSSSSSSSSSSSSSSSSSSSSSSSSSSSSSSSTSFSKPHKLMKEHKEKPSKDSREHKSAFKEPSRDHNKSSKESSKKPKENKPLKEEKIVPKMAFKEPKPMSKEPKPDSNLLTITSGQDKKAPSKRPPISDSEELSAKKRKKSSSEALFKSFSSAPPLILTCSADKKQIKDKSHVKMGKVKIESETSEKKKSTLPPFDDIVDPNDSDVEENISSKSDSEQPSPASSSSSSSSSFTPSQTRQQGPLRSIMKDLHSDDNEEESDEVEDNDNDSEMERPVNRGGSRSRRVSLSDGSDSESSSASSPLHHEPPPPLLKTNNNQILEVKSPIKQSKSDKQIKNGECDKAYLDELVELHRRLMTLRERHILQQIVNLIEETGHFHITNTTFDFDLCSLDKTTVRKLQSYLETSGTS
Numbers without * were called inactive; i = inactive; ? = inconclusive; / = not tested or not shown. This is a subset. The share of hits here may be higher or lower than overall.

SMILES | RanGTP-Imp inh | UCH37 DUB inh | FGF22 binding | HNF4A DNA FP | Vif TR-FRET | Ecoli growth | AF4-AF9 inh
O=C(COc1ccccc1Cl)Nc1ccc2[nH]c(=O)[nH]c2c1 | / | -0.8 | i | 2.3 | 0% | 0.7 | 4.5
CC(=O)N1CCN(C(=O)OC2CC3CC2[C@H]2CCCCN2C3=O)CC1 (stereo not given in full) | / | / | i | -5.9 | / | / | -4.1
CCOC(=O)c1cnc2c(C)c(C)ccc2c1Nc1ccc(S(=O)(=O)Nc2ncccn2)cc1 | -4.3 | -1.9 | / | -0.2 | / | 0.72 | /
COc1ccccc1/C(C)=N/Oc1cc(N)cc([N+](=O)[O-])c1 | / | / | i | -1.3 | -1% | / | -1.1
COc1ccc(C(=O)NCCc2c[nH]c3ccc(OC)cc23)cc1 | 0.5 | 2.1 | i | -3.5 | -1% | 0.67 | 4.9
O=C(CC1NCCNC1=O)OCCCc1ccccc1 (stereo not given) | 6.7 | 2.2 | i | -3.7 | 3% | 0.69 | 6.8
COc1ccc(-n2nnc3c(SCc4ccccc4)ncnc32)cc1 | 3.2 | -4.1 | / | 1.2 | 6% | 0.74 | /
Cc1ccc(S(=O)(=O)N2[C@@H](c3ccc(C(C)C)cc3)C(C(=O)O)=C[C@H]2C(C)(C)C)cc1 | / | 7.6 | i | 4.3 | 2% | 0.66 | -2.0
CCCc1ccc(NS(=O)(=O)c2c(C)oc(C)c2C(=O)OC)cc1 | 1.4 | 1.1 | i | 1.1 | -11% | 0.61 | -9.7
OCC1CCCN(C(=S)Nc2ccc(Nc3ccccc3)cc2)C1 (stereo not given) | 2.0 | 0.1 | i | 3.9 | 8% | 0.72 | 10
Cc1onc(-c2ccccc2)c1-c1nc2cc(Cl)ccc2c(=O)o1 | -0.2 | / | i | 2.4 | 3% | / | 0.4
COC(=O)Cc1[nH]n(-c2nc3ccccc3s2)c(=O)c1C(C)=O | 4.9 | 1.9 | / | -2.3 | 5% | 0.69 | /
CN(C)S(=O)(=O)c1cc(NC(=O)CN2CCOCC2)ccc1Cl | -0.2 | 0.8 | i | -0.6 | -6% | 0.65 | -3.9
S=C(NCc1ccccc1)NN1CCOCC1 | -1.0 | 3.1 | i | 1.6 | -4% | 0.68 | -4.8
CSc1nnc(-c2cc3ccccc3cc2O)n1C | / | -97 | / | -2.8 | 2% | 0.77 | /
CCOc1ccccc1NC(=O)CCS(=O)(=O)c1cccc2nonc12 | / | 2.4 | / | -1.5 | -1% | 0.73 | /
CSCCC(NC(=O)c1c(C)oc2c1CCCC2)C(=O)O (stereo not given) | -0.6 | 0.9 | / | 1.2 | 1% | 0.69 | /
CCOc1ccccc1CNC(=O)CCn1ccc2cc(S(=O)(=O)N3CCCCC3)ccc21 | 6.9 | 3.9 | i | 1.7 | / | 0.71 | -1.7
CC(C)(C)OC(=O)N[C@H](C(=O)OC(C)(C)C)c1ccccc1 | / | 5.8 | i | -0.3 | / | / | /
O=C(CN1CCN(c2ccccn2)CC1)Nc1ccccc1 | 0.3 | -2.1 | / | -5.2 | 26% | 0.65 | /
COc1ccc(-c2c(C#N)sc(C(N)=O)c2-c2ccc(OC)cc2)cc1 | 3.1 | 0.6 | / | 0.5 | / | 0.66 | -1.8
O=C(Nc1cnccn1)Nc1ccccc1Cl | 7.8 | -0.1 | i | 2.4 | 1% | 0.71 | -2.5
CCCCC1(C)NC(=S)N2N1C(=S)NC2(C)CCCC (stereo not given) | 0.5 | / | i | 2.1 | -5% | / | -0.2
Cc1ccc(CNC(=O)COC(=O)c2cc(=O)[nH]c3ccccc23)cc1 | / | -17 | i | 0.8 | / | 0.65 | -4.0
COc1ccc(CCNC(=O)CSc2ncnc3c2oc2ccccc23)cc1OC | 0.2 | 1.3 | / | 0.1 | -1% | 0.75 | /
(further entries)
SMILES | RanGTP-Imp inh | UCH37 DUB inh | FGF22 binding | HNF4A DNA FP | Vif TR-FRET | Ecoli growth | AF4-AF9 inh
CCNc1ccc(C(=O)N/N=C/c2c(C)nn(-c3ccccc3)c2N2CCCC2)cc1[N+](=O)[O-] | -2.9 | / | i | -3.7 | -1% | / | 3.5
CCOC(=O)Cc1nnc(Nc2ccc(C)cc2C)c2ccccc12 | -1.0 | 4.7 | / | -1.5 | 2% | 0.66 | /
COC(=O)c1ccc(NS(=O)(=O)c2cc3c4c(c2)C(C)C(=O)N4CCC3)cc1 (stereo not given) | 2.0 | -2.3 | i | 1.5 | 2% | 0.66 | -28
CCOc1cc(C(=O)OCC(=O)NCc2ccco2)cc(OCC)c1OCC | -2.5 | 0.1 | / | -3.7 | ? | 0.7 | /
O=S(=O)(NCc1ccco1)c1ccc2ccccc2c1 | 9.3 | 1.3 | i | 0.5 | / | 0.69 | -4.3
COc1ccccc1NC(=S)NC1CC2CCC1C2 (stereo not given) | -1.3 | 5.9 | i | 5.5 | -9% | 0.63 | -0.3
Cc1cc(/C=N/Nc2ncnc(N)c2[N+](=O)[O-])c(C)n1-c1ccccc1 | -1.5 | / | i | -3.5 | 16% | / | 3.5
CSc1nc(Oc2ccccc2)c2sccc2n1 | -1.1 | -3.3 | / | 0.5 | 0% | 0.65 | /
O=C(O)CCC(=O)N1N=C(c2ccc(Br)cc2)CC1c1cccc(Br)c1 (stereo not given) | -1.8 | / | i | -4.4 | / | / | 2.9
CCOC(=O)C(NC(=O)NC1CCCCC1)(c1ccccc1)C(F)(F)F (stereo not given) | 1.6 | 4.0 | / | -2.0 | 66% | 0.76 | /
COCCCNC(=S)N/N=C/c1ccc(N(C)C)cc1Cl | 1.9 | / | i | -4.4 | -9% | / | /
Cc1ccc2c(c1)c(N=Nc1cccc(C(=O)O)c1)c(O)n2C | ? | 8.8 | / | -0.7 | 5% | 0.65 | /
Cc1ccc2nsnc2c1S(=O)(=O)N1CCN(CCc2ccccc2)CC1 | -0.7 | 4.3 | / | -2.8 | 18% | 0.69 | /
O=C(Cc1ccccc1)NCC(=O)OCC(=O)c1ccc(F)cc1 | -1.0 | 4.0 | i | -0.3 | / | 0.67 | -0.1
CC(C)Cn1c(SCC(=O)NC(=O)NC2CCCC2)nc2ccccc21 | -2.7 | -0.3 | i | -2.0 | 3% | 0.67 | 7.1
CCOC(=O)C1=C(c2ccc(OC)cc2)C(=O)c2ccccc2C1=O | 6.3 | -30 | / | / | / | 0.65 | /
C=C1CC(C)OC(c2ccccc2OCC(O)CN2CCCCC2)C1 (stereo not given) | 1.0 | 6.8 | / | 3.5 | -6% | 0.65 | /
CC(=O)NCC(=O)OCC(=O)N1c2ccccc2Sc2ccccc21 | 1.0 | 0.9 | i | -3.4 | -8% | 0.7 | 2.4
Cc1ccc(NC(=O)Nc2ccccc2C#N)c(Cl)c1 | 2.7 | -50 | / | -2.7 | -6% | 0.72 | /
CC1=C(C(=O)Nc2ccccc2)C(c2ccncc2)C(C#N)=C(SCC(=O)NC2CC2)N1 (stereo not given) | -0.5 | 1.0 | / | -3.0 | 2% | 0.73 | /
COc1cccc(CN2CCNC(=O)C2CC(=O)N(C)C2CCOCC2)c1 (stereo not given) | 2.7 | -5.6 | i | -2.1 | / | 0.64 | 2.6
Cc1sc2nc(SCC(=O)OC(C)C)n(C)c(=O)c2c1C | 0.1 | / | / | 1.1 | 0% | / | /
CCc1nc(CN2CCN(c3ccc(C(F)(F)F)cn3)CC2)c(C)[nH]1 | ? | 4.3 | i | 2.2 | -9% | 0.66 | 1.3
CCOC(=O)N1CCN(C(=O)c2ccc3nc4cc(Cl)ccc4c(=O)n3c2)CC1 | -2.3 | i | / | 1.2 | -8% | 0.6 | /
COc1cc2c(cc1OC)CN(CC(=O)NC(=O)NCc1ccco1)CC2 | -0.2 | -25 | / | 0.0 | -1% | 0.7 | /

A different layout for some results above:
Order of results: RanGTP-Imp inh, UCH37 DUB inh, FGF22 binding, HNF4A DNA FP, Vif TR-FRET, Ecoli growth, AF4-AF9 inh
> COc1cccc(CN2CCNC(=O)C2CC(=O)N(C)C2CCOCC2)c1 (stereo not given)
 : 2.7, -5.6, i, -2.1, /, 0.64, 2.6
> Cc1sc2nc(SCC(=O)OC(C)C)n(C)c(=O)c2c1C
 : 0.1, /, /, 1.1, 0%, /, /
> CCc1nc(CN2CCN(c3ccc(C(F)(F)F)cn3)CC2)c(C)[nH]1
 : ?, 4.3, i, 2.2, -9%, 0.66, 1.3
> CCOC(=O)N1CCN(C(=O)c2ccc3nc4cc(Cl)ccc4c(=O)n3c2)CC1
 : -2.3, i, /, 1.2, -8%, 0.6, /

Remaining list, next part
SMILES | RanGTP-Imp inh | UCH37 DUB inh | FGF22 binding | HNF4A DNA FP | Vif TR-FRET | Ecoli growth | AF4-AF9 inh
COc1cccc(NC(=O)CN(C)C(=O)CSCC(=O)Nc2ccc(C)cc2)c1 | / | 0.7 | i | 10 | 13% | 0.69 | 0.7
CC1=CN2C(=NC(=O)CC2(C)C(=O)N(CC(=O)NC2CCCC2)Cc2ccccc2)C=C1 (stereo not given) | -0.8 | i | i | 1.5 | / | 0.67 | -3.3
COc1ccc(C(C)NS(=O)(=O)Cc2ccccc2)cc1 (stereo not given) | -0.5 | 0.6 | i | 0.6 | / | 0.67 | -8.6
O=C1CCCN1CC(O)CS(=O)(=O)c1ccc(Cl)cc1 (stereo not given) | 0.0 | 1.4 | / | -1.4 | 1% | 0.72 | /
CCCn1c(=O)c2c(nc3n2CCCN3Cc2ccccc2)n(C)c1=O | 2.4 | 0.1 | i | 1.7 | 2% | 0.61 | 0.1
COc1ccc(NC(C)=O)cc1NC(=O)c1ccc2ccccc2c1 | 2.1 | 2.3 | i | 2.0 | -9% | 0.68 | -1.5
Cc1cc(NCc2ccccc2)nc2ccccc12 | -0.2 | -0.7 | / | -0.3 | 4% | 0.55 | /
CCOCC(=O)Nc1ccccc1C(=O)OCC | 0.7 | 0.2 | / | -1.4 | 6% | 0.7 | /
CSc1nnc2c(n1)OC(c1ccsc1)N(C(C)=O)c1ccccc1-2 (stereo not given) | -6.8 | 7.3 | / | -1.8 | 0% | 0.7 | /
Cc1ccc2nc(NC(=O)c3ccc(S(=O)(=O)N4CCCc5ccccc54)cc3)sc2c1 | 7.0 | 3.1 | / | -1.6 | / | 0.74 | /
CC12CCC(C(=O)N(CC(O)CN3CCCCC3)C1=O)C2(C)C (stereo not given) | -2.5 | 1.0 | / | 2.4 | -3% | 0.68 | /
C[C@H](CO)N1C[C@H](C)[C@@H](CN(C)S(C)(=O)=O)Oc2ccc(NC(=O)Nc3ccccc3)cc2C1=O | / | 0.8 | i | -4.5 | / | / | -2.4
CC1(NC(=O)c2ccccc2)CCN(CCCc2ccccc2)C1=O (stereo not given) | / | 0.5 | i | 0.6 | / | 0.65 | -1.2
O=C(Cc1ccc(O)cc1)NCCNC(=S)NCc1ccccc1 | -0.7 | 2.5 | i | 3.2 | -6% | 0.65 | -0.1
COC(=O)c1ccc(-n2nc(C(F)(F)F)c3c2-c2ccoc2CC3)cc1 | 3.0 | -0.7 | / | 1.8 | 14% | 0.76 | /
CCCCOC(=O)c1ccc(NC(=S)NC(=O)c2c(Cl)cnn2C)cc1 | 2.3 | 4.3 | / | -1.0 | 3% | 0.76 | /
CC1=C(C(=O)NC2CCCc3c2cnn3-c2cc(F)cc(F)c2)OCCO1 (stereo not given) | 3.6 | 0.7 | i | 1.6 | -8% | 0.71 | -1.0
CCCN1C2CCCC1CC(NC(=S)Nc1cc(C)cc(C)c1)C2 (stereo not given) | 6.3 | 5.8 | i | -1.3 | 3% | 0.72 | 4.7
Cn1c(Cc2ccccc2)nnc1SCC(=O)NC1CC1 | -3.6 | 1.7 | i | 2.4 | / | 0.68 | -0.9
CNc1ncnc2c1ncn2[C@H]1CN(Cc2ccco2)C[C@@H](CO)O1 | / | / | i | -4.4 | / | / | 1.0
